YopH PTP inh: YopH (Yersinia) phosphatase inhibition | 140,000 compounds, 0.16% hits | fluorescence Ex485/Em525 | AID 898 | inhibition, %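 (about 10 µM by stock and volumes)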;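 active = inhibition of 50% or more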;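 note: controls were vehicle for no effect and minimum signal wells for full effect; inactives centre near -20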
Mtb bLac sens: beta-lactam sensitization of Mtb H37Rv; M. tuberculosis H37Rv growth with meropenem, percent inhibition; hits of this screen are not shown here; inhibition, % at 25 µM; 330,000 compounds, 0.27% hits; AID 434955;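 active = about 74% or more and at least 40 points above the plate without the antibiotic, then above 30% in a dose series; inconclusive = first-round hits that could not be retested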;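 note: growth measured after seven days incubation then overnight dye step; 0% = bacteria only wells and 100% = bacteria with antibiotic; twin plates without the antibiotic show which effects depend on it; some results filed as inactive read as strong as hits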
Arbovirus inh: blocks arbovirus infection; arbovirus infection cell-based antiviral screen; inhibition, % at 10 µM; 200,000 compounds, 0.37% hits;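 active = inhibition from about 30%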;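 note: bluetongue infection of BSR cells; cell survival read as ATP light after 72 h; 0% = infected wells without compound and 100% = uninfected wells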
RecA intein inh: blocks M. tuberculosis RecA intein splicing; P9WHJ3; cell-free RecA intein splicing, fluorescence; inhibition, %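 (about 9 µM by stock and volumes)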; 290,000 compounds, 0.75% hits; in the data active = inhibition above about 30%; inconclusive = no clear call, values can overlap the other calls;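 note: 0% = vehicle wells and 100% = reference inhibitor control wells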
Target sequence (P9WHJ3 whole entry, looked up): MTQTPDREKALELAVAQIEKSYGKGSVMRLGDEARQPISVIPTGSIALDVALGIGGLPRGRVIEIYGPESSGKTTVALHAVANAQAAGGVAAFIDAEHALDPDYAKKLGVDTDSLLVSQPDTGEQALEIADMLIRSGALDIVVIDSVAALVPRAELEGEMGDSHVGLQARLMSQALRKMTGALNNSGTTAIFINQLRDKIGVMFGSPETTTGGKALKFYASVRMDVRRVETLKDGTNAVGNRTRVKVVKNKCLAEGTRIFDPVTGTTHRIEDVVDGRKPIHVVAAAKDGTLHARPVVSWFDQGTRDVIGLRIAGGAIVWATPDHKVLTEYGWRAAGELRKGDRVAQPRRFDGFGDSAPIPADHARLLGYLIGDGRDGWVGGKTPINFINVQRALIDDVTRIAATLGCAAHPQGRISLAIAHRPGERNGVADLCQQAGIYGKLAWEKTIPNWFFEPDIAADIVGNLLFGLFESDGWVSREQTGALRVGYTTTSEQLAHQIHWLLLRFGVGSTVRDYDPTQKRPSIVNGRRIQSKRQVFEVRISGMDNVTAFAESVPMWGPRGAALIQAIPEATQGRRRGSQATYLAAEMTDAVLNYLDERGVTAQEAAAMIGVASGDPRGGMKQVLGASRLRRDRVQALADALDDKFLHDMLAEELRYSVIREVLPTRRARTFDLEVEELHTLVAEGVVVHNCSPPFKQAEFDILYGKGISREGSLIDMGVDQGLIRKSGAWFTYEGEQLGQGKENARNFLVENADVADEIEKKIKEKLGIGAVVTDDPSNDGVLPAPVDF
Mtb growth: M. tuberculosis H37Rv growth inhibitors, H37Rv strain (AID 1626). M. tuberculosis H37Rv growth inhibition; higher % means a stronger effect. inhibition, % at 10 µM; hits with a dose series show IC50 in µM. 220,000 compounds, 0.95% hits;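 active = confirmed in a dose series; inconclusive = inhibition above 80% but not taken into the dose series; inactive = below 80% or under 30% at every dose of the series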;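 note: bacteria incubated seven days before Alamar blue readout; 0% = bacteria only wells and 100% = bacteria with antibiotic wells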
Arbovirus inh repeat: recorded beside Arbovirus inh, whose call it bears; inhibition, %; measured here: 10K subset replicate screen; many hits read low in the repeat;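 first of two repeat runs on a subset; 0% = infected and 100% = uninfected wells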
Numbers without * were called inactive; ? = inconclusive; · = no result given. A portion of the library; the hit share may differ from the screen's.

SMILES	YopH PTP inh	Mtb bLac sens	Arbovirus inh	RecA intein inh	Mtb growth	others
CCOc1ccc(C(=S)NC2CCCCC2)cc1	-38	-12	4	-0.6	-1%
CCN1CCN(C(=O)c2ccc3c(c2)N(Cc2ccccc2)C(=O)c2ccccc2S3=O)CC1 (stereo unspecified)	·	-2	·	0.5	·
CC(NCC(O)COCc1ccc(Cl)cc1)c1ccccc1 (stereo unspecified)	·	4	-13	-1.3	11%
Cc1ccccc1N(C(=O)c1snc(C(N)=O)c1N)C(C(=O)NCC1CCCO1)c1ccc(N(C)C)cc1 (stereo unspecified)	·	0	·	0.8	·
CC1(C)CC(NC(=O)COc2ccccc2Cl)CC(C)(C)N1	·	-3	-2	-0.3	0%
COc1ccc(C(=O)NCC(=O)N2CCc3ccccc3C2)cc1	·	6	6	2.5	5%
C#Cc1cccc(-n2nnc(C(=O)OC)c2-c2ccccc2)c1	·	0	·	-1.3	·
Cn1cc(/C=C2\SC(=O)N(c3ccccc3)C2=O)c2ccccc21	-16	-1	-8	-11	-6%
Cc1cc(C)nc(NS(=O)(=O)c2ccc(NC(=O)c3cc(-c4ccccc4)nc4ccccc34)cc2)n1	-28	5	11	12	28%
C/C(=N\N1CCN(C2c3ccccc3-c3ccccc32)CC1)c1ccncc1	-47	11	-5	1.9	-10%
CCn1c(=O)cc(O)c2ccccc21	-13	15	-3	-20	2%	Arbovirus inh repeat=4
COc1cccc(-c2nc(NCc3ccccc3)c3ccccc3n2)c1O	·	2	·	0.5	·
CCOC(=O)c1c(NC(=O)CN2CCN(C(=O)c3ccco3)CC2)sc(C)c1C	·	18	·	6.0	·
CCOc1ccc(S(=O)(=O)N2CCC(C(=O)NCc3ccco3)CC2)cc1	·	-23	·	-1.4	·
CCOc1ccc(C(=O)Nc2cccc(-c3ccc(N4CCOCC4)nn3)c2)cc1OCC	·	11	·	-1.4	·
COc1cccc(/C=C(/C(=O)OCC(=O)NC2CCCC(C)C2C)c2ccccc2)c1 (stereo unspecified)	-11	-4	-17	3.6	10%
C=CCSc1nnc2c(n1)OC=Nc1ccccc1-2	-2	-5	1	3.5	7%	Arbovirus inh repeat=4
Cc1ccc(N2C(=O)N3[C@H]4c5ccccc5OC[C@@H]4[C@@H](c4ccccc4)[C@@]3(C)C2=O)cc1	·	91	·	4.3	·
O=C(CS(=O)(=O)c1cn(CC(=O)N2CCOCC2)c2ccccc12)NCc1ccccc1	·	-3	·	0.0	·
Cc1ccc(C(=O)CSc2nnc3ccccn23)c(C)c1	·	-13	5	-0.9	2%
CCOC(=O)Cc1csc(SCC(=O)Nc2cc(C)ccc2OC)n1	·	30	1	0.3	69%
COc1cc(C(=O)NCC(=O)OCn2nnc3ccccc3c2=O)cc(OC)c1OC	·	-7	4	2.3	4%
CC(C)c1nc(C(=O)N2CCCC(N3CCN(c4cccc(Cl)c4)CC3)C2)cs1 (stereo unspecified)	·	-1	·	-0.5	·
COCCN(C(=O)Cc1cccs1)C(C(=O)NCc1ccc(OC)cc1)c1ccc(OC)cc1 (stereo unspecified)	-33	8	4	0.2	4%
O=C(NCCCN1CCOCC1)c1onc(CSc2ccccc2)c1C(=O)NCCCN1CCOCC1	·	2	·	-0.3	-12%
COC(=O)c1c(NC(=O)c2c(Cl)cnn2C)sc(C)c1C	·	2	1	-0.3	-2%
N#C/C(N=Nc1ccccc1O)=N\Nc1ccccc1O	·	101	·	-2.7	·
OCCN(Cc1nc(-c2ccc3c(c2)OCO3)no1)Cc1cccs1	·	-11	-6	-0.2	1%
CCOc1ccc(NC(=O)c2ccc(NC(=O)c3ccc(CN4CCOCC4)cc3)cc2)cc1	·	2	·	0.2	·
C[C@@H]1O[C@@H](OC2C(O)C(OCCc3ccc(O)c(O)c3)OC(CO)C2OC(=O)/C=C/c2ccc(O)c(O)c2)[C@H](O)[C@H](O)[C@H]1O (stereo partly specified)	·	-1	·	-1.6	·
c1ccc(CCN2CN=C(Nc3nc4ccccc4o3)NC2)cc1	-51	99	-3	2.3	?
COc1ccc(CC(=O)Nc2ccncc2Cl)cc1	·	8	·	-3.0	·
COc1ccc(CNC(=O)C2(C)Cc3ccccc3C(=O)O2)cc1 (stereo unspecified)	·	-5	-1	2.6	-2%
COc1ccccc1C#Cc1ccc2c(=O)c3ccccc3n(C)c2c1	·	-3	·	-15	·
CCC(=O)NC(=S)Nc1ccc(N2CCOCC2)cc1	·	-2	2	-1.5	-5%
COc1ccc(/C=N/NC(=O)c2cnccn2)cc1O	-22	4	-1	-3.8	-5%

The closing five entries of the section before are carried over, then new ones follow:
SMILES	YopH PTP inh	Mtb bLac sens	Arbovirus inh	RecA intein inh	Mtb growth	others
COc1ccc(CC(=O)Nc2ccncc2Cl)cc1	·	8	·	-3.0	·
COc1ccc(CNC(=O)C2(C)Cc3ccccc3C(=O)O2)cc1 (stereo unspecified)	·	-5	-1	2.6	-2%
COc1ccccc1C#Cc1ccc2c(=O)c3ccccc3n(C)c2c1	·	-3	·	-15	·
CCC(=O)NC(=S)Nc1ccc(N2CCOCC2)cc1	·	-2	2	-1.5	-5%
COc1ccc(/C=N/NC(=O)c2cnccn2)cc1O	-22	4	-1	-3.8	-5%
CN(C(=O)CSc1nnc(-c2ccncc2)n1C)C1CCS(=O)(=O)C1 (stereo unspecified)	-27	-9	6	-2.9	2%
CCOC(=O)c1ccc(NC(=O)N2CCN(C(=O)c3ccco3)CC2)cc1	·	-3	16	1.9	67%
COc1ccc(N=C2SC(CC(=O)Nc3ccccc3)C(=O)N2Cc2ccccn2)cc1 (stereo unspecified)	·	-1	-9	-1.1	9%
NS(=O)(=O)c1ccc(NC(=O)CSc2ccc3ccccc3n2)cc1	-4	52	0	1.4	3%
CC(=O)c1cccc(NC(=O)/C(=C\c2ccco2)NC(=O)c2cccs2)c1	-15	-1	-7	3.8	0%
CC(C)(C)OC(=O)N1CCC(CC2CC(c3cccc(Br)c3)=NO2)(C(=O)NCC2CCCCC2)CC1 (stereo unspecified)	·	-4	·	4.5	·
O=C(O)CCn1c(SCc2cccc3ccccc23)nc2ccccc21	20	0	2	0.4	-6%
COc1ccccc1NC(=O)CN1C(=O)COc2ccc(S(=O)(=O)N3CCOCC3)cc21	·	7	·	0.0	·
COc1ccc(S(=O)(=O)NC(C)C(=O)NCc2ccncc2)cc1OC (stereo unspecified)	·	-1	·	-0.4	·
N[C@@H](CO)c1nnc([C@H](Cc2ccc(O)cc2)NC(=O)C2CCNCC2)o1	·	-9	-2	-4.0	-9%
O=C(CNC(=O)c1ccco1)NCC(=O)OCc1cccc(Cl)c1	19	2	-1	-0.9	-3%
NC(=O)NC(=O)CN1C(=O)NC(c2ccccc2)(c2ccccc2)C1=O	·	-3	·	2.3	·
Cc1ccc(CN2CCSc3ccc(C(=O)NCc4cccnc4)cc32)cc1	·	1	6	0.6	5%
COc1ccc(CNS(=O)(=O)c2ccc(S(=O)(=O)NC3CC3)cc2)cc1	·	-1	·	-1.9	·
Cc1cc(C(=O)Nc2sc3c(c2C#N)CCC(C)C3)no1 (stereo unspecified)	-10	21	-14	-3.4	-5%
COc1c(C)cc(C(=O)C2CCCN(C(=O)CCc3scnc3C)C2)cc1C (stereo unspecified)	·	3	8	2.2	5%
O=C(CCC(=O)OCc1cccc([N+](=O)[O-])c1)Nc1ccc(F)cc1	·	-3	9	-1.0	-1%
CCOC(=O)N1CCN(C(=O)CSc2nnc(-c3ccc(C)c(C)c3)o2)CC1	-52	100	15	2.4	?	Arbovirus inh repeat=4
O=C(NCc1cccc(Cl)c1)c1ccc(CS(=O)Cc2ccc(Cl)cc2)o1 (stereo unspecified)	·	1	·	4.5	·
COCCN(C(=O)CSc1nnc(-c2ccccc2F)o1)c1c(N)n(CC(C)C)c(=O)[nH]c1=O	·	-3	·	2.1	·
Cc1snnc1C(=O)NC(=S)Nc1ccccc1	·	-1	·	0.7	-6%
CCC(c1nnc(SCC(=O)Nc2ccc(N3CCOCC3)cc2)n1Cc1ccccc1)N(C)C (stereo unspecified)	·	-11	·	-3.1	·
CCc1cc(Cn2nc(-c3ccccc3)cc2C(=O)NCC2CC2)on1	·	1	·	4.8	·
COCCn1c(C)cc(C(=O)COc2cccnc2[N+](=O)[O-])c1C	·	19	-7	-3.4	-1%
CCc1cccc(CC)c1NC(=S)N1CCn2cccc2C1c1cccnc1 (stereo unspecified)	-10	5	9	3.0	5%
COc1cccc(Sc2ccccc2/C=N/NC(N)=O)c1	·	-3	-18	0.4	1%
Cc1cc(=O)[nH]c(N/N=C/c2ccc([N+](=O)[O-])cc2)n1	·	0	5	2.0	4%
Cc1ccc(S(=O)(=O)N2CCCOC2CNC(=O)C(=O)NCc2ccco2)cc1 (stereo unspecified)	-6	10	-5	-5.1	1%
O=C(C1CCN(Cc2nc(Cc3cccc(F)c3)no2)CC1)N1CCOCC1	·	-4	-1	-5.4	-2%
CC(=O)N1CCc2ccc(S(=O)(=O)N3CCc4ccccc43)cc21	·	-7	1	-1.0	-4%
COCCCNC(=S)N/N=C/c1ccc(N(C)C)cc1Cl	·	-2	·	-1.6	-4%
C/C=C(\C)C(=O)N[C@@H](c1ccccc1)[C@@H](O)C(=O)O[C@H]1C[C@@]2(O)[C@@H](OC(=O)c3ccccc3)C3[C@](C)(C(=O)[C@H](OC(C)=O)C(=C1C)C2(C)C)[C@@H](O)C[C@H]1OC[C@@]31OC(C)=O (stereo partly specified)	·	-1	·	2.2	·
CN1C(=O)/C(=C/c2cn(CC(=O)N3CCCCC3)c3ccccc23)NC1=S	·	1	·	-3.3	·
CCOc1ccccc1C(=O)Nc1ccc(S(=O)(=O)N2CCOCC2)cc1	-29	5	-3	-0.5	5%
COc1ccc(NC2=CC(=S)NC(C)(C)C2)cc1	·	-8	·	1.1	-2%
COc1cc2[nH]c(=S)n(Cc3cccs3)c(=O)c2cc1OC	·	-4	-14	-1.5	4%
Cn1c(O)c(/C=N/NC(=O)c2ccncc2)c(=O)n(C)c1=S	·	99	·	-1.0	?
COc1ccc(C2/C=C\CN(C(=O)OCc3ccccc3)CC(=O)N2Cc2ccc(F)cc2)cc1 (stereo unspecified)	·	3	·	10	-10%
COc1ccc(-c2c(NC(C)=O)n(C)c3ccccc3c2=O)cc1	-33	12	5	0.3	-10%
CCCCOP(=O)(OCCCC)C(O)c1ccc(N(C)C)cc1 (stereo unspecified)	·	-3	·	-2.5	-4%
COc1ccccc1N1CCN(C(=O)c2ccc(Cl)c(S(=O)(=O)N3CCOCC3)c2)CC1	·	-2	·	-0.4	·
CC(C)CC(=O)NC(=S)Nc1ccc(N2CCCC2)c(Cl)c1	·	0	·	-2.0	17%
CCOc1ccc(NS(=O)(=O)c2ccc(C(=O)NCCCN3CCCC3=O)cc2)cc1	·	-28	·	-3.3	·
COc1ccc(S(=O)(=O)n2cnc3cc(C)c(C)cc32)cc1	-18	-4	-2	-4.1	-1%	Arbovirus inh repeat=0
O=C1NCC(O)=C1C=NCCCO	-38	1	4	-3.8	·
Cc1cc(NC(=O)CCC(=O)N(Cc2ccco2)C2(C(=O)NC3CCCCC3)CCCC(C)C2)no1 (stereo unspecified)	·	-5	·	5.8	·
CCCCCn1c(=O)[nH]c2cc(C(=O)NCCCN(CC)CC)ccc2c1=O	-27	-5	-13	-10.0	-17%	Arbovirus inh repeat=-19
Cc1[nH]c2ccc(C(=O)N3CCN(Cc4ccccc4)CC3)cc2c1C	·	6	·	-1.0	·
Nc1ccn(-c2ccc(Cl)cc2)c(=O)c1	-17	-16	3	-1.6	1%
O=C(COC(=O)CCN1C(=O)c2ccccc2C1=O)Nc1ccc(S(=O)(=O)N2CCCC2)cc1	-23	-15	-4	2.8	-7%
O=C(Nc1ccc(F)cc1)c1ccccc1S(=O)(=O)c1ccccc1[N+](=O)[O-]	-20	6	-1	-0.1	1%
COc1ccc(/C=N/NC(=O)c2ccn[nH]2)cc1CSc1ccccn1	·	5	·	-1.9	·
O=C(CSc1nnc2ccccn12)Nc1cccc(S(=O)(=O)N2CCOCC2)c1	-31	-5	-3	-1.0	-13%
Cc1ccc(N(C)C(=O)CCNC(=O)Cn2cnc3ccccc3c2=O)cc1C	·	3	·	1.4	·
COc1cc2c(c(OC)c1OC)-c1c(cc(OC)c(OC)c1OC)C[C@](C)(O)[C@@H](C)C2	·	-8	·	-2.0	2%
CCOC(=O)CSc1nc2ccsc2c(=O)[nH]1	·	0	2	-2.3	7%
COC(=O)[C@@]1(Cc2ccccc2)C=C[C@@H](C)N1C(C)=O	·	-2	·	-1.6	-12%

Bioassay records as filed in PubChem.
